GIV-Gai inh – GIV-Galpha-i interaction inhibition | P08753 | Galpha-i3/FITC-GIV peptide fluorescence polarization, 90 min; active compounds read low; scaled: aluminum fluoride 0%, vehicle 100% | percent of control (FP), % (no concentration beside the values) | 210,000 compounds, 0.42% hits | AID 1224905;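 active = replicate mean at 85% of control or lower, very high polarization wells dropped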;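 also: wells of about 15 µL received 100 nL stock; the first replicate is given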
Target sequence (P08753 whole entry, looked up): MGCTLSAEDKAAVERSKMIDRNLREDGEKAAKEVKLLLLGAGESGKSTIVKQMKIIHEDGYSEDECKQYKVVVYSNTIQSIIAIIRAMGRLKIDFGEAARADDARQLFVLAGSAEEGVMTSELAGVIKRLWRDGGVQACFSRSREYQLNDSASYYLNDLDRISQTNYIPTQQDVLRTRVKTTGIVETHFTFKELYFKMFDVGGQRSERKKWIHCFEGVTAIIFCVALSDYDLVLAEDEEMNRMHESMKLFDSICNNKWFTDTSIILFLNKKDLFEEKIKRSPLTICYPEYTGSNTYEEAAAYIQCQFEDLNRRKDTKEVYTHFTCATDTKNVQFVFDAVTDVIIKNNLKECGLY
Sa growth 42C – S. aureus growth inhibition. S. aureus RN4220 growth, OD600, 20 h, 42 °C; active compounds read low. relative growth, % (no concentration beside the values). 170,000 compounds, 0.53% hits. AID 720641;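 active = growth at 42 °C up to 50% and 20 or more points under that at 30 °C, or under 10% at both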;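 also: 300 nL library stock went into each well; scaled to the means of positive and negative controls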
HCMV NEC inh – cytomegalovirus nuclear egress complex inhibition. AID 1918969. 190,000 compounds, 0.15% hits. HTRF UL50-UL53 interaction, normalized percent inhibition. inhibition, % (concentration not given with the values);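 active = both replicates at 50% or more, plus weaker picks with an unusually low signal ratio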;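 also: stock transfer was 100 nL into about 20 µL; 0% = negative control wells and 100% = wells with untagged competitor protein; inactives centre near -12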
Sa growth 42C second temp – second read-out of Sa growth 42C, no call of its own (marks repeat the call); relative growth, %; measured here: growth at 30 °C;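 optical density after 20 h as mean of two plates; 100% = untreated growth and lower means inhibition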
Numbers without * were called inactive; x = not tested or not shown; & = joins results of further samples.

Compound	GIV-Gai inh	Sa growth 42C	Sa growth 42C second temp	HCMV NEC inh
CC(C)NC(=O)c1ccc2c(=O)n(C(C)C)c3n[nH]c(=O)n3c2c1	99.3	x	x	-20.6
Cc1cc(C=C(C#N)C#N)c(C)n1-c1ccccc1	92.3	80.6	115.5	2.3
COc1ccc(-c2cc3c(=O)n(CC(=O)Nc4ccccc4C)ncn3n2)cc1	105.7	x	x	-9.3
O=C(OCCCn1c(=O)[nH]c2ccccc21)c1ccc(S(=O)(=O)N2CCOCC2)cc1	x	99.8	90.6	-22.2
CC(=O)N1c2ccc(S(=O)(=O)NCC3CCC(C(=O)NC4CCCC4)CC3)cc2CC1C (stereo not given)	110.0&115.3	101.0	101.3	16.2&-3.0
O=S(=O)(NCc1ccc(Cl)cc1Cl)c1ccc(N2CCOCC2)nc1	109.3	107.5	97.9	-3.4
CC1=NN(c2ccccc2)C(=O)/C1=C/c1c(C)[nH]n(-c2ccccc2)c1=O	102.4	112.4	106.9	-24.1
Cn1c(=O)oc2cc(S(=O)(=O)N3CC=C(c4ccccc4)CC3)ccc21	104.9	102.1	86.4	-29.0
COc1ccc(-c2n[nH]c3c2C(c2ccccn2)N(C)C3=O)cc1 (stereo not given)	99.5	94.9	89.0	-15.7
COc1ccc(N2CCN(c3nc(N4CCOCC4)nc(N4CCOCC4)n3)CC2)cc1	105.4	x	x	-6.3
Cc1ccc2oc3c(c(=O)c2c1)C(c1ccc([N+](=O)[O-])cc1)N(CCCN1CCOCC1)C3=O (stereo not given)	96.0	105.1	87.1	-81.2
COc1ccc(Cl)cc1NC(=O)C(C)Sc1nnc2ccc3ccccc3n12 (stereo not given)	97.9	x	x	-16.4
O=S(=O)(NCc1ccccc1)c1ccc2c(c1)OCCO2	102.1	86.0	82.7	x
CCOC(=O)N1CCC(N=Cc2ccc(OC(C)C)cc2)CC1	102.6	116.0	89.4	x
CCc1nc2ccccc2c(C(=O)OCC(=O)c2ccccc2)c1C	x	102.1	87.7	-23.7
O=C1CC(c2ccccc2)OC12CCCCC2 (stereo not given)	101.4	98.3	85.0	x
O=C(ON(C(=O)c1ccc(F)cc1)C1C2CC3CC(C2)CC1C3)c1ccc(F)cc1 (stereo not given)	98.6	85.8	87.4	-15.6
CCCn1c(C(C)NC(=O)C(C)(C)C)nc2ccccc21 (stereo not given)	100.4	114.7	87.1	x
Cc1ccc(N2CC(c3nc(-c4ccc(N5CCCC5)cc4)no3)CC2=O)cc1 (stereo not given)	101.3	x	x	-10.4
CCc1ccc(-c2csc(NC(=O)c3sc(C)nc3C)c2C(=O)OC)cc1	103.4	x	x	-21.7
Cc1nn2c(C(F)(F)F)cc(-c3ccccn3)nc2c1-c1ccccc1	104.3	x	x	-6.6
CCCN1CCC(NC(=O)Nc2cccc(F)c2)CC1	102.1	119.4	100.0	-38.2
COc1ccc2c(c1)c(C(=O)N1CCN(c3ccccc3C)CC1)c(C)n2-c1ccccc1	101.0	x	x	5.0
Nc1c(C(=O)CCC(=O)O)oc2ccccc12	104.8	84.3	100.8	11.7
Clc1ccc(N=c2scc(-c3cccs3)n2CCCN2CCOCC2)cc1	102.2	54.9	19.1	-22.3
OC1(c2ccccc2)C2CC3CC(C2)CC1C3 (stereo not given)	97.8	105.8	80.8	x
Cc1cccc(-n2c(=O)c3c(c4cc(C)ccc4n3C)n(CC(=O)Nc3ccccc3C(F)(F)F)c2=O)c1	100.6	99.6	88.3	0.5
CCCN1CCN(CCNC(=O)Nc2ccccc2OCC)CC1	101.3	x	x	-26.6
COc1ccc(-n2cnnc2SC(C)C(=O)N2CC(C)CC(C)C2)cc1 (stereo not given)	x	95.7	90.0	-3.8
CCCCn1nc(C(=O)N2CCN(S(=O)(=O)c3ccccc3)CC2)c2ccccc2c1=O	x	90.9	88.2	-17.8
O=C1c2oc3ccccc3c(=O)c2C(c2ccc(Cl)cc2)N1c1ccccn1 (stereo not given)	111.4	96.9	92.6	-0.4
NNC(=O)c1cc(-c2ccccc2)nn1-c1ccccc1	x	75.9	81.3	-13.1
Cc1c2cnn(-c3ccccc3)c(=O)c2c(C)n1CCCC(=O)Nc1cccc(F)c1	104.8	112.6	83.7	-11.1
CCCCNC(=O)CCn1nc(-c2ccc(Cl)cc2)c2ccccc2c1=O	102.4	115.9	81.0	-28.0
Cc1cc(C)c2ccc(/C=N/O)nc2c1O	98.2	107.4	92.5	x
CN(Cc1ccccc1)c1csc2ccccc2c1=O	105.5	89.9	84.0	-103.0

Remaining list, next part:
molecule	GIV-Gai inh	Sa growth 42C	Sa growth 42C second temp	HCMV NEC inh
CN(Cc1ccccc1)C(=O)CN1C(=O)CSc2ccc(S(=O)(=O)N3CCOCC3)cc21	102.1	115.0	88.1	x
CC(C)c1ccc(NC(=O)N2CCCC2C(=O)Nc2ccc(-n3cnnn3)cc2)cc1 (stereo not given)	102.9	100.7	75.4	-4.0
OC1(c2ccc(OC(F)F)cc2)CSC(=Nc2cccnc2)N1C1CC1 (stereo not given)	x	88.7	91.9	-7.9
CNc1nc(Cl)nc(Oc2ccc(=O)n(C)n2)n1	97.4	80.7	94.6	0.9
CCOc1ccc(C(=O)NCCn2cc(SCC(=O)Nc3ccccc3)c3ccccc32)cc1	102.8	84.8	92.1	-3.5
CCc1nn2c(=O)c(S(=O)(=O)Nc3ccc(Br)cc3F)c(C)nc2s1	105.2	110.6	74.7	-6.4
Cc1ccc(C(=O)Nc2c(C)nc3ccccn3c2=O)cc1C	97.2&99.1	106.2	89.7	x
CC(C)(C)OC(=O)Nc1ccccc1C(=O)O	103.6	94.1	76.7	-23.2
COc1ccc(Cl)cc1NC(=O)c1cc(C)nc2c1c(C)nn2-c1ccccc1	99.3	99.1	106.3	x
Cc1ccc2scc(N3CCC(C)CC3)c(=O)c2c1	108.0	95.6	73.3	x
COC(=O)CCCc1nc2ccccc2s1	99.6	81.8	88.0	-32.3
CC(C)CNc1nc(SCC(N)=O)nc(N2CCOCC2)n1	104.2	97.0	98.9	-7.7
COc1ccc(OC(=O)c2snnc2C)cc1	97.8	99.5	90.5	-9.1
CCOC(=O)C1=C(C)C2C3C(=O)N(c4ccccc4[N+](=O)[O-])C(=O)C3C1(C)C1C(=O)N(c3ccccc3[N+](=O)[O-])C(=O)C21 (stereo not given)	101.8	x	x	-22.2
O=C(Nc1ccccc1C(=O)OCc1cc(=O)n2ccsc2n1)c1ccc(Cl)cc1	97.8	100.3	92.4	x
O=c1c2ccccc2[nH]c2ncccc12	100.5	106.6	85.7	-61.1
CCOc1ccccc1NC(=O)CSc1nc2c(oc3ccccc32)c(=O)n1-c1ccc(C)c(C)c1	102.5	107.9	86.7	-39.4
CCOc1ccccc1C(=O)N(Cc1cc(OC)c(OC)c(OC)c1)C1CCS(=O)(=O)C1 (stereo not given)	101.1	103.3	87.1	-16.4
Cc1ccc(NC(=O)Cn2nc3c(cc2=O)CCCC3)cc1Cl	98.0	100.3	87.5	x
CCCc1c(C(=O)OCC)sc(N)c1C#N	102.7	101.4	94.5	-7.8
O=c1oc2cc(O)ccc2cc1-c1nc(-c2ccccc2F)no1	-62.2*	93.9	64.1	-29.8
CCOc1cc(/C=C2/SC(=S)N(C(CC)C(=O)O)C2=O)ccc1O (stereo not given)	168.3	79.8	68.1	-87.9
CCc1ccc(NC(=O)N(Cc2c[nH]c3ccccc23)C2CCCCCC2)cc1	106.0	84.8	103.0	-2.2
CCN(C(=O)CSC1CCCC1)C1CCCCC1	x	84.6	106.8	5.4

Ordered by number of heavy atoms (low to high): some entries from above.
molecule	GIV-Gai inh	Sa growth 42C	Sa growth 42C second temp	HCMV NEC inh
O=c1c2ccccc2[nH]c2ncccc12	100.5	106.6	85.7	-61.1
CCOc1ccccc1NC(=O)CSc1nc2c(oc3ccccc32)c(=O)n1-c1ccc(C)c(C)c1	102.5	107.9	86.7	-39.4
CCOC(=O)C1=C(C)C2C3C(=O)N(c4ccccc4[N+](=O)[O-])C(=O)C3C1(C)C1C(=O)N(c3ccccc3[N+](=O)[O-])C(=O)C21 (stereo not given)	101.8	x	x	-22.2

Next section:
molecule	GIV-Gai inh	Sa growth 42C	Sa growth 42C second temp	HCMV NEC inh
CCCn1cc(C2CC(=O)N(c3ccc(Br)cc3)C2=O)c2ccccc21 (stereo not given)	111.5	x	x	6.0
O=C(COCc1cc(-c2ccc(F)cc2)on1)NCCC1=CCCCC1	105.1	93.3	87.2	-20.0
CC(C)S(=O)(=O)C1=NSC2=NC(=O)/C(=C\c3ccco3)C(=N)N21	100.4	105.0	99.1	x
CC(C)(C)c1ccc(C(=O)NCCc2csc(-c3ccc(F)cc3)n2)cc1	104.4	x	x	-11.2
CC(=O)N1c2ccc(S(=O)(=O)NCCC(=O)N(C)Cc3ccccc3)cc2CC1C (stereo not given)	98.9	123.8	83.7	x
COc1ccc(CNC(=O)Cc2ccc(NC(=O)N3CCSc4ncccc43)cc2)cc1	107.0	97.0	86.2	x
CC1=C(C(=O)OCc2ccc3c(c2)OCO3)C(c2ccc(N(C)C)cc2)NC(=O)N1 (stereo not given)	103.0	x	x	-7.5
Cc1ccc(C(=O)NCC(c2ccco2)S(=O)(=O)c2ccc(Cl)cc2)cc1C (stereo not given)	98.2	102.5	84.5	x
CCC(=O)OCC(=O)[C@@]1(OC(=O)CC)[C@@H](C)CC2C3CCC4=CC(=O)C=C[C@]4(C)C3(F)[C@@H](O)C[C@@]21C (stereo not given in full)	x	90.3	89.3	-31.8
Cc1occc1-c1nnc(SCC(=O)N2CCCCC2)o1	101.4	x	x	-16.9
CCCN(CCC)S(=O)(=O)c1cc2[nH]c(=O)c(=O)[nH]c2cc1C	101.1	88.8	78.7	x
CC(C)(C)c1ccc(N2C(=O)CN(Cc3ccccc3)[C@H]3CS(=O)(=O)C[C@H]32)cc1	111.1	x	x	-4.4

Given with values under each structure: entries from further up
Under each structure – GIV-Gai inh	Sa growth 42C	Sa growth 42C second temp	HCMV NEC inh
> CCc1ccc(NC(=O)N(Cc2c[nH]c3ccccc23)C2CCCCCC2)cc1
→ 106.0	84.8	103.0	-2.2
> CCN(C(=O)CSC1CCCC1)C1CCCCC1
→ x	84.6	106.8	5.4
> CCCn1cc(C2CC(=O)N(c3ccc(Br)cc3)C2=O)c2ccccc21 (stereo not given)
→ 111.5	x	x	6.0
> O=C(COCc1cc(-c2ccc(F)cc2)on1)NCCC1=CCCCC1
→ 105.1	93.3	87.2	-20.0
> CC(C)S(=O)(=O)C1=NSC2=NC(=O)/C(=C\c3ccco3)C(=N)N21
→ 100.4	105.0	99.1	x
> CC(C)(C)c1ccc(C(=O)NCCc2csc(-c3ccc(F)cc3)n2)cc1
→ 104.4	x	x	-11.2
> CC(=O)N1c2ccc(S(=O)(=O)NCCC(=O)N(C)Cc3ccccc3)cc2CC1C (stereo not given)
→ 98.9	123.8	83.7	x
> COc1ccc(CNC(=O)Cc2ccc(NC(=O)N3CCSc4ncccc43)cc2)cc1
→ 107.0	97.0	86.2	x
> CC1=C(C(=O)OCc2ccc3c(c2)OCO3)C(c2ccc(N(C)C)cc2)NC(=O)N1 (stereo not given)
→ 103.0	x	x	-7.5
> Cc1ccc(C(=O)NCC(c2ccco2)S(=O)(=O)c2ccc(Cl)cc2)cc1C (stereo not given)
→ 98.2	102.5	84.5	x
> CCC(=O)OCC(=O)[C@@]1(OC(=O)CC)[C@@H](C)CC2C3CCC4=CC(=O)C=C[C@]4(C)C3(F)[C@@H](O)C[C@@]21C (stereo not given in full)
→ x	90.3	89.3	-31.8
> Cc1occc1-c1nnc(SCC(=O)N2CCCCC2)o1
→ 101.4	x	x	-16.9
> CCCN(CCC)S(=O)(=O)c1cc2[nH]c(=O)c(=O)[nH]c2cc1C
→ 101.1	88.8	78.7	x
> CC(C)(C)c1ccc(N2C(=O)CN(Cc3ccccc3)[C@H]3CS(=O)(=O)C[C@H]32)cc1
→ 111.1	x	x	-4.4

Next part.
molecule	GIV-Gai inh	Sa growth 42C	Sa growth 42C second temp	HCMV NEC inh
CCCCNC(=O)c1ccc(Nc2cc(-c3cccc(C)c3)ncn2)cc1	110.5	x	x	-5.7
CCOC(=O)OC(C)OC1=C(C(=O)Nc2ccccn2)N(C)S(=O)(=O)c2ccccc21 (stereo not given)	98.4	84.8&94.3	83.9&87.0	-26.8&-23.5&-77.8
Cc1cc(C)cc(NC(=O)c2cnn(-c3ccc(C)c(C)c3)c2C2CCNCC2)c1	97.9	93.8	93.5	x
COc1cccc(C(=O)NCC(=O)OCc2cc(=O)n3ccsc3n2)c1	112.5&110.4	88.5	93.8	-3.5
C/C(=N\OCC(=O)N1c2ccccc2CC1C)c1ccc(S(=O)(=O)N(C)C)cc1 (stereo not given)	x	124.5	88.1	-7.4
C=CCn1c(-c2cccs2)nc2ccccc21	x	122.4	80.6	-13.3
c1ccc2c(c1)[nH]c1nc(NN=C3CCC(=NNc4nnc5c(n4)[nH]c4ccccc45)CC3)nnc12	108.0	113.0	79.2	-25.3
Cn1cc(/C=C/c2nc3ccccc3c(=O)n2-c2ccc([N+](=O)[O-])cc2)c2ccccc21	102.2	x	x	-19.8
CCOC(=O)CN1C(=O)c2ccccc2Sc2ncccc21	104.7	101.2	95.0	-1.3
CCn1c(SC)nnc1C1CCN(CC(=O)N(c2ccccc2)c2ccccc2)CC1	99.4	106.6	86.8	-1.2
COc1ccc(CNC(=O)Nc2ccc3c(c2)N(C)C(=O)c2ccccc2S3)cc1	102.6	93.9	93.2	8.9
O=C(NCCS(=O)(=O)N1CCN(c2ccc(F)cc2)CC1)C1CC(=O)N(c2ccc(F)cc2)C1 (stereo not given)	100.2	84.4	92.1	x

Source: PubChem BioAssay
